Screens as filed in PubChem.
GIV Gai3 FP: blocks GIV peptide binding to rat Galpha-i3 | Galpha-i3/FITC-GIV peptide fluorescence polarization, 90 min; active compounds read low; scaled: aluminum fluoride 0%, vehicle 100% | percent of control (FP), % (no concentration beside the values) | 0.42% of 210,000 active | AID 1224905;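 active = replicate mean at 85% of control or lower, very high polarization wells dropped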;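 also: wells of about 15 µL received 100 nL stock; the first replicate is given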
Target sequence (P08753 whole entry, looked up): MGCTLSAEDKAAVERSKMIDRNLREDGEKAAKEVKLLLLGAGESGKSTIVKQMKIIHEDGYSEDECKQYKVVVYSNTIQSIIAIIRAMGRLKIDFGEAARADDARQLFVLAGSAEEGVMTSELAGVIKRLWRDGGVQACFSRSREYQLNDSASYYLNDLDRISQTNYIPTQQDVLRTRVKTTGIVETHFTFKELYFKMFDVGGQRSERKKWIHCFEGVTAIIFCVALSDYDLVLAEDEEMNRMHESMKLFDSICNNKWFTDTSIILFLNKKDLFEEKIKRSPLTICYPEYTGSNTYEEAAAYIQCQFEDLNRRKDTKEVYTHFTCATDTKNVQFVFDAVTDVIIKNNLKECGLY
Sa growth inh: S. aureus growth inhibition; S. aureus RN4220 growth, OD600, 20 h, 42 °C; active compounds read low; relative growth, % (no concentration beside the values); 0.53% of 170,000 active; AID 720641;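 active = growth at 42 °C up to 50% and 20 or more points under that at 30 °C, or under 10% at both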;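 also: 300 nL library stock went into each well; scaled to the means of positive and negative controls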
HCMV NEC inh: inhibitors of HCMV UL50-UL53 nuclear egress complex interaction. HTRF UL50-UL53 interaction, normalized percent inhibition. inhibition, % (test concentration not listed). 0.15% of 190,000 active;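 active = both replicates at 50% or more, plus weaker picks with an unusually low signal ratio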;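 also: stock transfer was 100 nL into about 20 µL; 0% = negative control wells and 100% = wells with untagged competitor protein; inactives centre near -12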
Sa growth inh second temp: recorded beside Sa growth inh, whose call it bears; relative growth, %; measured here: growth at 30 °C;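 optical density after 20 h as mean of two plates; 100% = untreated growth and lower means inhibition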
An asterisk follows results filed as active; . = no result given; & = joins results of further samples. Compounds as they come; 0.85% or so of the library scored in one or more.

SMILES	GIV Gai3 FP	Sa growth inh	Sa growth inh second temp	HCMV NEC inh
O=C(Cn1nc(-c2ccccc2)c2cnc3ccccc3c21)Nc1ccccc1	104	94	89	-8
CCCc1noc(-c2cc(S(N)(=O)=O)ccc2OC)n1	99	.	.	4
COc1ccc(NC(=O)c2ccc(Cn3c(=O)[nH]c4cc(OC)c(OC)cc4c3=O)cc2)cc1OC	102	.	.	4
COc1ccc(-c2noc(CSCC(=O)Nc3ccc(C)cc3Br)n2)cc1OC	106	95	90	.
CCCn1c(=O)c2sccc2n2c(CCCC(=O)Nc3ccccc3F)nnc12	106	100	86	.
COc1ccc(C(CNC(=O)c2oc3cc(C)c(Cl)cc3c2C)N2CCCCC2)cc1 (stereo unspecified)	103	95	86	-26
Cc1cc(C)c2nc(-c3ccco3)cc(C(=O)O)c2c1	97	119	84	-16
O=c1[nH]c(CN2CCN(S(=O)(=O)c3ccc4c(c3)OCCO4)CC2)nc2ccsc12	.	120	93	4
COc1ccc(C2Nc3ccccc3-c3nnc(SC)nc3O2)cc1Br (stereo unspecified)	99	.	.	-16
CC1CCN(S(=O)(=O)c2ccc3c(ccn3CC(=O)NC(C)c3ccccc3)c2)CC1 (stereo unspecified)	102	.	.	-7
CCOc1ccc(OCCSc2nc3ccccc3n2CCO)cc1	97	.	.	-22
COc1cc2c(cc1OC)C(c1ccncc1)CC(=O)N2 (stereo unspecified)	99	.	.	9
O=C1C(C=NCc2ccco2)=C(O)c2ccccc21	101	84	105	-49
CS(=O)(=O)Nc1ccc(/C(N)=N/OC(=O)Nc2ccccc2)cc1	105	88	94	-7
Cc1ccoc1C(=O)Nc1ccccc1C(=O)O	96	149	112	3
COc1cccc(-c2nc(SCC(=O)NCC3CCCO3)c(-c3ccc(F)cc3)[nH]2)c1 (stereo unspecified)	106	105	74	13
COc1ccc(Cn2ccc3nc(C)c(C(=O)Nc4ccccc4)cc3c2=O)cc1	101	120	88	-12
Cc1ccc(-c2c(O)c3cc(C)c(C)cc3c3oc(=O)sc23)cc1	101	90	87	.
COc1cccc(CNC(=O)c2ccc3c(c2)c(C)c(C)n3Cc2ccccc2)c1OC	98	119	97	.
O=C(O)C1CCN(c2cnccn2)CC1	107	98	95	8
CCN(CC)CCOc1nnc(-c2ccc(OC)cc2)c2ccccc12	103	.	.	-9
Cc1ccc(C)c(N2CCN(C(=O)c3cccn3-c3nnc(N4CCCCC4)s3)CC2)c1	98	90	90	.
CC(=O)Nc1ccccc1-n1cccc1	103	.	.	-28
CC1CCN(Cn2c(=S)oc3ccccc32)CC1	103	92	73	.
COc1ccc(C2=N/C(=C\c3cc(Br)c(OC(C)=O)c(OC)c3)C(=O)O2)cc1[N+](=O)[O-]	111	.	.	-7
Continuation.
SMILES	GIV Gai3 FP	Sa growth inh	Sa growth inh second temp	HCMV NEC inh
CCOc1ccc(NC(=O)Cn2c(=O)n(Cc3nc(-c4ccccc4)no3)c(=O)c3ccccc32)cc1	107	79	90	.
COc1ccc(-c2nc(Nc3cccc(Cl)c3)c3ccccc3n2)cc1	106	.	.	-32
Cc1ccc(Cl)cc1N1CCN(C(=O)c2ccc(C)c(-n3c(C)nc4cccnc43)c2)CC1	112	87	68	.
CCCOc1ccc(C2c3c(-c4ccccc4O)n[nH]c3C(=O)N2CCc2ccccc2)cc1OCC (stereo unspecified)	102	107	86	-6
Cc1c(C(=O)NCCCN2CCCCC2)oc2ccc3c(c12)C(O)CC(C)(C)O3 (stereo unspecified)	101	94	89	-15
Cc1cc(C(=O)NCc2ccc3c(c2)OCO3)nc2c1c(C)nn2-c1ccccc1Cl	101	103	91	.
CC(=O)Nc1cccc(NC(=O)CSc2nc3ccccc3o2)c1	102	.	.	-26
CC1=C(C)C(=O)C(N2CCN(Cc3ccccc3)CC2)=CC1=O	.	62	70	-20
Cn1c(SCC(=O)N2c3ccccc3CCc3ccccc32)nnc1C1CC1	104	106	118	17
O=S(=O)(NC1CCCCCC1)c1ccc(-c2cc(C(F)(F)F)on2)o1	108	.	.	-3
Cc1ccccc1NC(=O)NC1CCN(C(C)C)CC1	97	100	103	-17
C=CCOc1ccc(CNc2ccc3[nH]c(=O)[nH]c3c2)cc1	98	92	90	-18
CCOC(=O)CSc1nnc(CNC(=O)Cc2ccccc2)n1-c1ccc(OC)cc1	105	92	78	-20
COc1ccc(C(=O)CC2(O)C(=O)N(Cc3cccc(C(F)(F)F)c3)c3ccccc32)cc1 (stereo unspecified)	106	92	77	-23
COc1ccc(CNC(=O)C2CCN(S(=O)(=O)c3c(C)noc3/C=C/c3ccccc3F)CC2)cc1	100	99	93	.
CCOC(=O)CCc1ccc(C(=O)C(F)(F)F)o1	101	109	112	-17
O=C(Nc1cc2ccccc2oc1=O)c1ccc(Cl)cc1	104	74	87	.
Cc1ccc(NC(=O)C(OC(=O)c2c(C)noc2C)c2ccccc2)cc1Cl (stereo unspecified)	.	79	87	-29
COC(=O)c1cc2c(ccn2-c2ccc(F)cc2)n1CC(=O)N1CC(C)CC(C)C1 (stereo unspecified)	98	82	80	-4
COc1ccc(S(=O)(=O)N(CC#N)Cc2ccco2)cc1OC	110	101	93	3
Cc1cc(-c2nc3ncccc3o2)ccc1NC(=O)c1ccc(Br)cc1	104	100	108	-21
COC(=O)c1cc(-c2ccc(C=C3C(=O)N(C)C(=O)N(C)C3=O)o2)ccc1Cl	99	.	.	-19
CCC(=NC(C)CCCN(CC)CC)c1c(O)n(-c2ccc(OC)cc2)c(=O)[nH]c1=O (stereo unspecified)	101	.	.	-32
Cc1ccc(NC(=O)C2CCCN(S(=O)(=O)c3c(C)n[nH]c3C)C2)cc1 (stereo unspecified)	100	87	80	-16
O=C1COc2ccc(S(=O)(=O)N3CCN(C(=O)Nc4ccccc4)CC3)cc2N1	112	.	.	3
(cont.)
SMILES	GIV Gai3 FP	Sa growth inh	Sa growth inh second temp	HCMV NEC inh
Cc1cc(NCC2CC2)n2nc(Nc3cc(Cl)ccc3C)nc2n1	100	135	64	-1
Cc1ccc(O)c(-c2ccnc3cc(-c4ccc(Cl)cc4)nn23)c1	105&105	101	90	-2&-12
Cc1cc(/C=C2/C(=O)NC(=S)N(Cc3ccco3)C2=O)c(C)n1C1CCCCC1	183	120	105	15
CC1(C)CO/C(=C/C(=O)c2ccncc2)N1	.	89	90	-14
CCOc1ccc(NC(=O)CCCc2nnc3n(C)c(=O)c4sccc4n23)cc1	96	128	84	.
COc1ccc(OC)c(N2C(=O)CC(Sc3nc4ccccc4s3)C2=O)c1 (stereo unspecified)	96	92	75	-7
CNCC(O)Cn1c2c(c3ccccc31)CCCC2 (stereo unspecified)	.	111	92	-5
COc1ccc(C(=O)Nc2nncs2)cc1S(=O)(=O)N1CC(c2ccccc2)CC1=O (stereo unspecified)	107	104	76	1
COc1ccc(CNC(=O)c2cnn3cc(Br)cnc23)cc1	119	95	103	-48
CC(=O)Nc1c(C(=O)O)[nH]c2ccccc12	.	121	86	-6
CN(C(=O)CSc1nnnn1C)c1ccccc1	.	97	93	-36
O=C(c1cccc(Cl)c1)N(Cc1cc2ccccc2[nH]c1=O)C1CCCCC1	98	99	94	.
CCOc1cc(-c2nnc(SCC(=O)Nc3ccc(F)c(F)c3)nc2-c2ccc(OC)c(OCC)c2)ccc1OC	108	102	83	.
Cn1cc(C(=O)NCC2COc3ccccc3O2)c(=O)c2cc(S(=O)(=O)N3CCCCC3)ccc21 (stereo unspecified)	105	89	87	-25
O=C(NCC1c2ccccc2CCN1C(=O)CN1CCOCC1)C1CCCCC1 (stereo unspecified)	100	97	88	-14
O=c1cc(-c2cccc(Cl)c2)[nH]c2nc3ccccc3n12	98	.	.	1
Cc1ccc2cc(C#N)c(NCc3ccccc3)nc2c1	108	126	113	14
Cc1ccsc1CCNC(=O)c1cc(-c2ccc(Cl)cc2)n[nH]1	101	91	85	.
Cc1ccccc1NC(=O)c1c(NC(=O)c2ccco2)sc2c1CCC2	98	107	98	-9
Cc1ccccc1NC(=O)CSc1nc2ccccc2c2nc(CCn3cncc3C)nn12	105	97	86	.
CCOC(=O)c1c(NC(=O)c2ccc(C)c([N+](=O)[O-])c2)sc(C(=O)Nc2ccccc2C(F)(F)F)c1C	106	.	.	-9
COC(=O)c1ccc(Cl)cc1NC(=O)NCc1c(-n2cccc2)sc2c1CCCC2	100	110	94	-8
CC(C)CCN1C(=O)c2nc3ccccc3n2CC1(C)C(=O)NC1CCC(C)CC1 (stereo unspecified)	98	.	.	-84
Cc1cccc(Nc2ncc3ncn(-c4cccc(C)c4)c3n2)c1	109	92	82	-6
COc1ccc(C(=S)N2CCC(C)CC2)cc1	102	127	81	.
More compounds.
SMILES	GIV Gai3 FP	Sa growth inh	Sa growth inh second temp	HCMV NEC inh
Brc1ccccc1C1OCC2(CO1)COC(c1ccccc1Br)OC2 (stereo unspecified)	.	93	88	-13
COc1ccc(CNC(=O)CCC2N=C3c4ccccc4N=C(SCC(=O)NCCc4ccc(OC)c(OC)c4)N3C2=O)cc1 (stereo unspecified)	100	110	94	.
COC(=O)c1ccccc1NC(=O)Cn1ccnc1	103	101	81	-17
CC(=O)c1ccc(N2CCN(S(=O)(=O)c3cc(-c4noc(C)n4)ccc3C)CC2)cc1	105	96	102	.
CC(C)C1C(=O)Nc2ccc(S(=O)(=O)NCc3ccc(Cl)cc3)cc21 (stereo unspecified)	103	101	86	.
COc1cccc(NC(=O)CCCN2C(=O)C3C4C=CC(C4)C3C2=O)c1 (stereo unspecified)	102	93	89	5
NC(=O)N/N=C/c1ccc(OC(=O)c2ccco2)cc1	103	110	112	-21
COc1ccc2nc(NC(=O)c3ccc(S(=O)(=O)N4CCCC(C)C4)cc3)sc2c1 (stereo unspecified)	103	81	93	.
Cc1cc2[nH]c(=O)[nH]c2cc1NC(=O)c1ccccc1C	103	.	.	-14
O=C(NCCc1ccccc1)c1nnc(-c2ccc3c(c2)OCO3)o1	107	86	90	-10
c1ccc2cc(Cn3ccnc3)ccc2c1	98	68	25	-32
O=C(Cn1c2ccccc2c(=O)c2ccccc21)Nc1ccc(Oc2ccc3ccccc3c2Cl)c(Cl)c1	101	.	.	-22
Cn1c(=O)c(=O)n(C)c2cc(Oc3ccccc3)c(NS(=O)(=O)c3ccc(Cl)cc3)cc21	98	.	.	-44
Ic1ccc(Nc2nc(Nc3ccccc3)nc(N3CCOCC3)n2)cc1	99	114	96	.
COc1cc(Cl)c(C)cc1NC(=O)c1ccc(CN2C(=O)CCn3nc(C)cc32)cc1	101	85	79	.
CCOC(=O)c1ccc(NC(=O)c2cccc3c2C(=O)N(Cc2cccnc2)C3)cc1	99	100	89	.
CCS(=O)(=O)N1CC(=O)N(c2ccc(Cl)cc2)C(C)(C(=O)NC2CCCCC2)C1 (stereo unspecified)	101	100	89	.
COc1ccc(C(=O)CCC(=O)Nc2ccc(F)cc2F)cc1	107	117	89	.
CSc1cc(-c2ccc(Cl)cc2)[nH]c(=O)c1C#N	102	107	85	-8
O=S(=O)(c1ccccc1)c1nnn2c1nc(NCc1ccccc1Cl)c1ccccc12	99	.	.	-12
